# StopGo reporter – High Throughput Screening for Foot and Mouth Disease Virus Antivirals; human cells with a luciferase reporter of 2A StopGo recoding; control for the full effect not named in the record; Potency, µM (doses to about 57.9 µM), for inactives: top-dose signal change, negative = less light; 410,000 tested, 1.2% active; AID 1159524, 2015; active = well fitted falling curve with a large enough effect; inconclusive = small, poorly fitted or top-dose-only effect; inactive = no such curve, though single readings can be large or run the other way; tested in HEK293T cells; further: on the % scale 0 is the no-effect control and ±100 the full control effect; nearly all actives have a fitted effect of over 45% in size; luciferase light after 4 h
# NS1 inh – qHTS Assay for Inhibitors of Influenza NS1 Protein Function; 270,000 tested, 0.4% active; Potency, µM (doses to about 46.1 µM), inactives show at the top dose activity, positive = more growth; AID 2326, 2010; S. cerevisiae slowed by influenza A NS1, growth recovery by OD600; further: actives are rising curves; nearly all actives have a fitted effect of over 50% in size
#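 OD600 was taken as the measure of yeast growth restored by compound in an NS1-expressing S. cerevisiae strain. Cells had been washed out of glucose medium and diluted 1:100 into galactose -URA medium, pH 6.0.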
# Cruzain noTriton – qHTS Assay for Promiscuous and Specific Inhibitors of Cruzain (without detergent); Potency, µM, for inactives: max response, negative = inhibition, most hits filed as inhibitors; purified cruzain, Z-FR-AMC fluorescence, no detergent; AID 1476, 2009; Cruzipain (Trypanosoma cruzi), P25779; 200,000 tested, 2.3% active; active means well fitted curve in the direction sought with a large enough effect; inconclusive means small, poorly fitted or top-dose-only effect, or another doubt; inactive means no such curve, though single readings can be large; an effect the other way counts as inactive or inconclusive;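 further: plate controls were enzyme without inhibitor for no effect and buffer without enzyme for full effect; nearly all actives have a fitted effect of over 40% in size; top concentration of the series not given in the record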
# Target sequence (P25779 123-467 limits assumed): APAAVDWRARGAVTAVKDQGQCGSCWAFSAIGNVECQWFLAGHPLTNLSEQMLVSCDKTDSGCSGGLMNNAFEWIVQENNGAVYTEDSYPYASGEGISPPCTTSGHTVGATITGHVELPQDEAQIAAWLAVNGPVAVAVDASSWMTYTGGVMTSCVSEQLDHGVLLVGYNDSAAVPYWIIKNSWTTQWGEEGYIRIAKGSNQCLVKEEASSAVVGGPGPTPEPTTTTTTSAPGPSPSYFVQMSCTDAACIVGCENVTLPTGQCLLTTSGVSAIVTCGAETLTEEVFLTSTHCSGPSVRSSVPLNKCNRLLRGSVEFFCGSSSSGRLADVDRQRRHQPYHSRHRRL
#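 Purified cruzain at 1.5 nM, pre-incubated 15 min with compound at room temperature in 100 mM sodium acetate pH 5.5, 5 mM DTT, 0.00005% Triton X-100. Reaction started with 2 uM Z-FR-AMC; AMC fluorescence increase over 60 s gives rate.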
# Lassa entry inh – qHTS for Inhibitors of binding or entry into cells for Lassa Virus; Lassa virus pseudotype entry inhibition, cell reporter; control for the full effect not named in the record; Potency, µM (titrated, usually from 37.9 µM), for inactives: at the top dose activity change, negative = inhibition, hits mostly inhibitors; 300,000 tested, 1.2% active; active means well fitted inhibition curve with a large enough effect; inconclusive means small, poorly fitted or top-dose-only effect, or effect the other way; inactive means flat fitted curve, though single readings scatter; tested in HEK293 cells; further: on the % scale 0 is the no-effect control and ±100 the full control effect; nearly all actives have a fitted effect of over 50% in size; luciferase read-out
# RE007 growth inh – qHTS Assay for Inhibitors of the HIV-1 protein Vpr; 360,000 tested, 0.21% active; S. pombe RE007 Vpr strain, BacTiter-Glo ATP luminescence, 24 h; control for the full effect not named in the record; Potency, µM (top dose mostly 92.2 µM), for inactives: at the top dose activity change, negative = less growth; AID 651644, 2012; active = well fitted falling curve with a large enough effect; inconclusive = small, poorly fitted or top-dose-only effect; inactive = no such curve, though single readings can be large or run the other way;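 further: on the % scale 0 is the no-effect control and ±100 the full control effect; nearly all actives have a fitted effect of over 50% in size; the assay follows cell death caused by Vpr and the record does not say whether a fall means rescue or toxicity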
#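 Fission yeast RE007 carrying one integrated HIV-1 vpr copy, seeded at OD 0.01 in PMG+AL medium with 23 nL pinned compound. Grown 24 h at 30 degrees; viability read by BacTiter-Glo luminescence after 5 min.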
# SARS PLP yeast – qHTS of Yeast-based Assay for SARS-CoV PLP | S. cerevisiae expressing SARS-CoV PLpro, growth rescue; control for the full effect not named in the record | 330,000 tested, 0.19% active | Potency, µM (doses to about 32.9 µM), for inactives: top-dose activity, positive = growth rescue | AID 485353, 2010; further: 0% is about no effect; nearly all actives have a fitted effect of over 55% in size; growth read by luminescence after 48 h
# Marburg entry inh – qHTS for inhibitors of binding or entry into cells for Marburg Virus | Marburg virus pseudotyped entry inhibition, cell reporter; control for the full effect not named in the record; about a third of the inactives were read at about 46 µM | Potency, µM (series often up to 37.8 µM), without a hit: at the top dose activity change, negative = inhibition, most hits filed as inhibitors | 300,000 tested, 1.8% active | AID 540276, 2011; active = well fitted inhibition curve with a large enough effect; inconclusive = small, poorly fitted or top-dose-only effect, or effect the other way; inactive = flat fitted curve, though single readings scatter; tested in HEK293 cells; about a fifth of its hits are not listed in these tables; further: on the % scale 0 is the no-effect control and ±100 the full control effect; luciferase read-out
# Cruzain inh Det – qHTS Assay for Promiscuous and Specific Inhibitors of Cruzain (with detergent). 200,000 tested, 0.43% active. Potency, µM, for the others: max response, negative = inhibition, most hits filed as inhibitors. purified cruzain, Z-FR-AMC fluorescence, 0.01% Triton. AID 1478, 2009; active means well fitted curve in the direction sought with a large enough effect; inconclusive means small, poorly fitted or top-dose-only effect, or another doubt; inactive means no such curve, though single readings can be large; an effect the other way counts as inactive or inconclusive;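 further: plate controls were neutral wells for no effect and buffer without enzyme for full effect; nearly all actives have a fitted effect of over 40% in size; top concentration of the series not given in the record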
#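 Detergent-containing arm of a paired screen for aggregation-based inhibition: 0.01% Triton X-100 present. Cruzain at 1.5 nM cleaved 2 uM Z-FR-AMC at pH 5.5 with 5 mM DTT; AMC fluorescence gain over 60 s measured activity.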
# * hit, by the source's call; ? = inconclusive; . = not tested or not shown; & = joins results of further samples; [ ] = remark or other dose. Unless noted, the call rests on the fitted dose curve; in most records, active means well fitted rising curve with a large enough effect; inconclusive means small, poorly fitted or top-dose-only effect; inactive means no such curve, though single readings can be large or run the other way. Potency means the concentration at half of the fitted maximal effect. Compounds as they come, and some 4.7% of all compounds hit somewhere here.
nr | structure | StopGo reporter | NS1 inh | Cruzain noTriton | Lassa entry inh
1 | Cc1cc(NC(=O)C(C)SCC(=O)Nc2ccccc2C(C)(C)C)no1 (stereo unspecified) | -6% | . | . | -8%[46.1 µM]
2 | CCC1(CC)Cc2ccccc2C(C2=C(O)CC(C)(C)CC2=O)=N1 | -20% | 11% | 0% | -2%
3 | CCOC(=O)CC(=O)c1cc(OC)c(OC)c(OC)c1 | 6% | -6% | -4% | -10%
4 | CC(C)(CO)Nc1nc(N2CCCC2)nc(N2CCCC2)n1 | -28% | -5% | 0% | 0%
5 | O=C(NCc1cccnc1)C(=O)Nc1cc2c3c(c1)CC(=O)N3CCC2 | 18% | . | . | 7%
6 | CCOC(=O)c1c(CSC(=N)N)n(-c2ccc(C)cc2)c2cc(Br)c(OC(C)=O)cc12 | ? | 18% | ? | .
7 | Cc1cc(C(F)(F)F)nn1Cc1n[nH]c(=S)n1-c1cccc(Cl)c1 | -21% | -5% | 9% | 9%[14.3 µM]
8 | CC(C)c1nnc(NC(=O)CCC(=O)Nc2ccc3cn[nH]c3c2)s1 | -8% | 11% | . | -10%
9 | COC(=O)CNc1nc(Cl)nc(Nc2ccc(Cl)cc2)n1 | -10% | . | . | 2%
10 | Cc1ccc(CN2CCCN(CC(=O)Nc3ccc(C)cc3C)S2(=O)=O)cc1 | -5% | . | 0% | -1%[46.1 µM]
11 | Cc1ccc(-c2cc(C(F)F)n3ncc(C(=O)N4CCC5(CC4)OCCO5)c3n2)cc1 | -16% | -4% | ? | -14%
12 | CCc1cc2c(cc3c(=O)n(CC(=O)NCCOC)nc(CC)n32)s1 | -9% | . | 8% | .

nr | RE007 growth inh | SARS PLP yeast | Marburg entry inh | Cruzain inh Det
1 | 14% | 14% | -9% | .
2 | -1% | 21% | -2% | -2.6%
3 | -1% | 7% | -3% | -0.4%
4 | -30% | 2% | ? | 2.0%
5 | -4% | -2% | 25% | .
6 | 19% | -7% | -6% | -3.0%
7 | 6% | -4% | -12% | -4.4%
8 | 1% | -1% | -15%[46.1 µM] | .
9 | -10% | 0% | 17%[46.1 µM] | .
10 | . | . | . | -6.0%
11 | -8% | 5% | -22% | -0.9%
12 | . | . | -16%[46.1 µM] | 1.0%

# Next part:
nr | structure | StopGo reporter | NS1 inh | Cruzain noTriton | Lassa entry inh
13 | COc1cccc(CNC2CCCCCCC2)c1OC | -6% | -8% | . | -24%[46.1 µM]
14 | O=C(CN1CCOCC1)N/N=C/c1ccc(-c2ccc(Br)cc2)o1 | -13% | 1% | . | -6%
15 | O=C(c1ccc(S(=O)(=O)N2CCCCC2)cc1)N1CCN(c2ccccc2F)CC1 | -21% | -8% | -6% | ?
16 | O=C(Nc1ccc2c(c1)CCC2)c1cc(F)cc(F)c1 | 22% | . | . | -7%
17 | CCOc1ccc(/C=C2\SC(=S)N(CCC(=O)Nc3ccc(C(=O)O)cc3)C2=O)cc1 | 69%[activator] | 34% | . | .
18 | COc1cccc(C(=O)NCC(c2cccs2)N2CCOCC2)c1 (stereo unspecified) | 7% | . | . | 20%
19 | COc1cc2ccccc2cc1C(=O)Nc1ccc2oc(-c3ccc(F)cc3Cl)nc2c1 | 35%[activator] | . | 17% | -2%[46.1 µM]
20 | COC(=O)C1C(=O)c2c([nH]c(C(=O)OC3CCCCCC3)c2C)CC1C (stereo unspecified) | 21% | 3% | -4% | .
21 | C=CCNC(=O)CN(c1ccc(F)c(Cl)c1)S(C)(=O)=O | . | -5% | -14% | 11%
22 | CCC(C)NC(=O)CN1C(=O)C(CC)Sc2ccccc21 (stereo unspecified) | 4% | . | . | 9%[46.1 µM]
23 | O=C(Cn1ncc2c(=O)oc3ccccc3c21)NCCN1CCN(c2ccccc2F)CC1 | -30% | -9% | 7% | -4%
24 | CN(Cc1ccccc1)S(=O)(=O)c1nnc(NC(=O)c2ccc(F)cc2)s1 | -9% | 11% | . | 2%[46.1 µM]

nr | RE007 growth inh | SARS PLP yeast | Marburg entry inh | Cruzain inh Det
13 | -15% | -1% | ? | .
14 | 3% | 0% | -1%[14.2 µM] | .
15 | 11% | 4% | ? | -3.0%
16 | 34% | -2% | -15% | .
17 | 2% | 1% | . | .
18 | -1% | 2% | 13% | .
19 | . | . | . | -0.7%
20 | 21% | 5% | -1% | -4.0%
21 | 0% | 2% | 13% | 4.7%
22 | -5% | 2% | -1%[46.1 µM] | .
23 | -6% | 6% | 2% | 0.2%
24 | -5% | 4% | 1%[46.1 µM] | .

# Remaining list, next part:
nr | structure | StopGo reporter | NS1 inh | Cruzain noTriton | Lassa entry inh
25 | CC(=O)C1=C(c2ccccc2)OC(N)=C(C#N)C1c1ccccc1F (stereo unspecified) | -15% | 0% | -10% | 2%
26 | CSc1ccc(C(=O)C2CCCN(C(=O)c3cc(C)n(C)n3)C2)cc1 (stereo unspecified) | -19% | -10% | . | .
27 | Cc1cccc(CCNC(=O)c2cnc3c(C)cccn3c2=O)c1 | 9% | . | 18% | 16%[46.1 µM]
28 | COC(=O)c1cccc(C23CC4(C2)[C@H](CN(Cc2cccnc2)[C@@H]4c2ccccc2)C3c2ccccc2)c1 (stereo partly specified) | ? | -2% | -10% | .
29 | CCOc1ccc(-n2c(SCC(=O)Nc3ccc(OC)cc3)nc3c(c2=O)SCC3)cc1 | -20% | -8% | -5% | -4%
30 | O=C(OCC(=O)N1CCOCC1)c1ccc2c(c1)OCCO2 | 14% | -1% | 3% | 5%
31 | CCc1ccccc1NC(=O)c1cc2sc(Cl)cc2n1CC | -2% | . | 10% | .
32 | COc1ccc(Br)cc1CNC(=O)c1cc2c(=O)n(C)c3ccccc3c2s1 | -11% | . | 6% | 4%[46.1 µM]
33 | NC(=O)CN(c1ccc([N+](=O)[O-])cc1)S(=O)(=O)c1ccccc1 | -21% | -5% | . | 8%
34 | O=C(c1ccc(Cl)c(S(=O)(=O)N2CCCCC2)c1)N1CCN(Cc2ccccc2)CC1 | 0% | 17% | . | ?
35 | O=C(Nc1c[nH]c(=O)[nH]c1=O)c1cccc([N+](=O)[O-])c1 | -9% | 14% | . | .
36 | CCCCn1c(O)c(C(C)=NCCCN(CC)CC)c(=O)[nH]c1=O | 0% | 2% | 3% | 10%

nr | RE007 growth inh | SARS PLP yeast | Marburg entry inh | Cruzain inh Det
25 | -8% | 10% | 22% | -8.4%
26 | 2% | -1% | . | .
27 | . | . | . | -7.1%
28 | 3% | -6% | . | -5.2%
29 | 2% | 6% | -23%&-23% | -1.4%
30 | -4% | -6% | -2%[46.1 µM] | 3.2%
31 | . | . | 12%[46.1 µM] | 10%
32 | . | . | 1%[46.1 µM] | -1.4%
33 | 10% | 2% | 23%[46.1 µM] | .
34 | 14% | -1% | -5% | .
35 | -8% | 2% | . | .
36 | -8% | 8% | -5% | 2.3%

# (more compounds)
nr | structure | StopGo reporter | NS1 inh | Cruzain noTriton | Lassa entry inh
37 | Cc1ccn2c(-c3csc(NCc4ccco4)n3)c(C)nc2c1 | ? | -14% | 1% | 0%
38 | CC(C)N(Cc1nccn1C)C(=O)c1ccc(OC2CCN(C(=O)C3CC3)CC2)cc1 | -8% | -4% | . | .
39 | N#C/C(=C\c1ccccc1)C(=O)Nc1cccnc1 | 6% | 5% | . | .
40 | CC(OC(=O)Cc1ccccc1[N+](=O)[O-])C(=O)NC(=O)NC1CCCCC1 (stereo unspecified) | 31%[activator] | . | . | 3%[46.1 µM]
41 | O=C(COC(=O)/C=C/c1ccc(Cl)cc1)NCCC1=CCCCC1 | -3% | -5% | -17% | -17%
42 | CN(CC(=O)Nc1ccccc1Cl)CC(=O)Nc1c(F)cccc1F | 5% | . | . | 6%
43 | Cc1ccc(-c2nc(CS(=O)CC(=O)NCCc3ccc(Cl)cc3)c(C)o2)cc1 (stereo unspecified) | -12% | . | ? | ?
44 | Cc1ccc(S(=O)(=O)NCc2nc3nc(C)cc(C)n3n2)c(C)c1 | -24%&2% | -1% | 5% | -6%[46.1 µM]
45 | CCCCNC(=O)c1onc(CSc2cccc(OCC)c2)c1C(=O)O | -27% | -1% | -4% | .
46 | CC(OC(=O)CNC(=O)c1ccc2ccccc2c1)C(=O)N(C)C1CCCCC1 (stereo unspecified) | -14% | . | . | 9%
47 | Cc1cc(C)c(NC(=O)C(C)n2c(=O)cc(C)c3c(C)nn(-c4ccccc4)c32)c(C)c1 (stereo unspecified) | -6% | . | 9% | -2%[46.1 µM]
48 | C/C(=N\OCC(=O)OCC(=O)NCc1ccccc1)c1ccc2c(c1)OCO2 | -5% | . | . | ?

nr | RE007 growth inh | SARS PLP yeast | Marburg entry inh | Cruzain inh Det
37 | -7% | 19% | 0% | 1.5%
38 | 2% | 0% | . | .
39 | 11% | 1% | . | .
40 | -9% | -5% | 7% | .
41 | -2% | 2% | 11% | 3.9%
42 | 2% | -7% | 2%[46.1 µM] | .
43 | . | . | -18%[46.1 µM] | 0.1%
44 | 1% | 0% | 12%[46.1 µM] | -1.4%
45 | 49% | 0% | . | 2.8%
46 | -16% | 4% | 1%[46.1 µM] | .
47 | . | . | . | 0.1%
48 | 31% | -3% | ? | .

# 3 compounds from above, reduced to Lassa entry inh.
cpd	SMILES	Lassa entry inh
5	O=C(NCc1cccnc1)C(=O)Nc1cc2c3c(c1)CC(=O)N3CCC2	7%
29	CCOc1ccc(-n2c(SCC(=O)Nc3ccc(OC)cc3)nc3c(c2=O)SCC3)cc1	-4%
24	CN(Cc1ccccc1)S(=O)(=O)c1nnc(NC(=O)c2ccc(F)cc2)s1	2%[46.1 µM]
